OX1R antagonist: antagonists of human orexin 1 receptor; actives 0.43% (n = 330,000); inhibition, % at 5 µM; AID 434989; O43613; CHO/OX1R cells, Fluo-8 calcium fluorescence, orexin A;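 active = inhibition above its plate's threshold, mean inhibition of all tested compounds on the plate plus 3 SD, cut at about 37% in these data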;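 note: 0% = orexin A challenge wells and 100% = SB-334867-A antagonist wells; not every result past the cut was called active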
Target sequence (O43613 whole entry, looked up): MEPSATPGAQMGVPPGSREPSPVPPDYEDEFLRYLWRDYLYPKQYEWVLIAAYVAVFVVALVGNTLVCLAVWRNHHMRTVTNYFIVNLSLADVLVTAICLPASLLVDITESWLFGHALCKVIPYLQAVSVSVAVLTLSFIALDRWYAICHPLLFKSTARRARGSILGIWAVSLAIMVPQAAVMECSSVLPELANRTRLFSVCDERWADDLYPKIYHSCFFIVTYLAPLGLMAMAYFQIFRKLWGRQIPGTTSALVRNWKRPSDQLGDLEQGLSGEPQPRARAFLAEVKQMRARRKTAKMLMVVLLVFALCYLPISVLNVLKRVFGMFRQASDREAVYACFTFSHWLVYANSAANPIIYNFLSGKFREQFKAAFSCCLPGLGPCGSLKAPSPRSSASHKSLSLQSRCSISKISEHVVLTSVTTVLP
Active calls of the source: *.

molecule | OX1R antagonist
COc1cccc(CC(=O)Nc2nc(C)cs2)c1 | -20
Cc1ccc2c(C(=O)CN3CCCCC3CCO)c(C)[nH]c2c1 (configuration not stated) | -22
CN(C)c1ccc(C(=O)C(O)c2ccc(C(C)(C)C)cc2)cc1 (configuration not stated) | -14
N#Cc1nc(-c2ccccc2)oc1NCC1CCCO1 (configuration not stated) | -12
COc1ccccc1NC(=O)c1sc2ncn(Cc3ccc(C)cc3)c(=O)c2c1C | -4
COc1ccc(N(C)S(=O)(=O)c2ccc3c(c2)CCC(=O)N3)cc1 | 6
CCOC(=O)c1cccc(NC(=O)Nc2ccc(OCC)cc2)c1 | -17
Cc1ccc(NC(=O)COC(=O)CCC(=O)c2ccc(Cl)cc2)cc1S(=O)(=O)N(C)C | -6
Cc1nn(CCC#N)c(NC(=O)c2ccc(Cl)cc2)c1P(=O)(Nc1ccc([N+](=O)[O-])cc1)N1CCOCC1 (configuration not stated) | -4
NS(=O)(=O)c1ccc(NC(=O)C2C3C=CC(C3)C2C(=O)O)cc1 (configuration not stated) | 1
CCCCN(C(=S)NC(=O)c1ccccc1)c1c(N)n(Cc2ccccc2)c(=O)[nH]c1=O | -30
CNC(=O)c1sccc1SCc1c(Cl)cccc1Cl | -21
O=C(Nc1ccccc1)C1=C[C@H](c2ccc(C(F)(F)F)cc2)C[C@H](OCc2ccc(CO)cc2)O1 | -31
COC(=O)c1ccc(/C=C/C(=O)O)cc1 | 2
O=c1sc2ccccc2n1Cc1ccccc1 | -4
CCOC(=O)CN1C(=O)C(O)(CC(=O)c2ccccn2)c2ccccc21 (configuration not stated) | -6
CN(C)Cc1ccccc1CCc1ccccc1 | -6
Cn1c(=NC(=O)COc2ccccc2)sc2ccccc21 | -3
COc1cc2c(cc1NC(=O)Nc1ccc(F)cc1)oc1ccccc12 | -16
O=C1N=NC(=O)N1c1ccccc1 | 3
CC(C)(C)C(=O)Nc1nc2cc3c(cc2s1)OCO3 | -16
CC(=O)O[C@H]1CC[C@@]2(C)C(CCC3C2CC[C@]2(C)OC(=O)CCC32)C1 (some centres not stated) | -11
Cc1ccc(C(=O)N2CCN(c3ccc(NC(=O)c4cccnc4)cc3)CC2)cc1 | -20
COc1ccccc1CNc1n[nH]c(NCc2ccccc2OC)n1 | -17
Cc1cc(C)n2nc(-c3ccc(Br)cc3)cc2n1 | 0
O=c1nc(Nc2cccc(Cl)c2)oc2cc(Cl)oc(=O)c12 | 4
COc1cc(NS(=O)(=O)c2ccc(NC(=S)NC(=O)/C=C/c3ccc(F)cc3)cc2)ncn1 | -20
CCCCSc1nc(SCC(=O)NCc2ccco2)c2c3c(sc2n1)COC(C)(CC)C3 (configuration not stated) | -38
O=C(/C(=C(\[O-])c1ccccc1)[n+]1ccc2ccccc2c1)c1ccc(Cl)cc1 | -13
CCOc1ccc(C(NC(=O)CC)c2c(O)ccc3ccccc23)cc1 (configuration not stated) | -34
CC(C)Oc1ccc(Oc2ccc(C(F)(F)F)cn2)cc1 | -12
COc1ccc(CCNC(=O)c2ccccc2OCc2ccccc2)cc1 | -11
COc1ccccc1CNC(=O)c1cnc2ccccn2c1=O | -4
CCC(C)(C)NC(=O)c1ccc2c(c1)OCCO2 | -11
COCC(C)NCc1ccc(OC)c(Br)c1 (configuration not stated) | -3
O=C(Cn1nc(Cc2cccnc2)c2ccccc2c1=O)NCC1CCCO1 (configuration not stated) | 1
O=C(CN1CCC(C(=O)c2ccc3c(c2)OCCO3)CC1)Nc1ccccc1F | -23
O=C(Cc1cccs1)NCc1cn2ccccc2n1 | -11
CCOc1cccc2cc(C(=O)NC(C)c3ccccc3)c(=N)oc12 (configuration not stated) | -25
N#Cc1ccc(-c2csc(NC(=O)c3cc(-c4cccs4)nc4ccccc34)n2)cc1 | -20
CC(C)CCNC(=O)C1CCN(C(=O)N(C)C)CC1 | -10
O=C(O)c1ccc(CSc2nnc(-c3ccccc3Br)o2)cc1 | 8
Cc1cc(=O)oc(C)c1C(=O)NCCC1=CCCCC1 | 1
CN(C)S(=O)(=O)c1ccc(NC(=O)CN2CCCCCC2)cc1 | 12
CC(C)CC(NC(=O)COc1ccccc1)C(=O)O (configuration not stated) | -4
CCC(Sc1nc(C)cc(=O)[nH]1)C(=O)Nc1nnc(C)s1 (configuration not stated) | -6
COCCn1nnnc1CN1C2CCCC1CC(NC(C)=O)C2 (configuration not stated) | -20
Cc1ccc2c(=O)cc(C(=O)NC3CCS(=O)(=O)C3)oc2c1 (configuration not stated) | -2
C=CCN1C(=O)c2ccc(C(=O)N3CCN(S(=O)(=O)c4ccccc4Br)CC3)cc2C1=O | -38
c1ccc(-c2ccc(-c3nc(-c4cccnc4)no3)cc2)cc1 | -9
Cc1ccc(C(=O)NCC(=O)O)s1 | -3
Cc1ccc(CNC(=O)C(=O)NCC2OCCN2S(=O)(=O)c2cccs2)cc1 (configuration not stated) | -29
CCOC(=O)C1=C(C)Nc2nc(C)nn2C1c1ccc(OC)c(OC)c1 (configuration not stated) | -11
COc1ccc(C2(C(=O)NCCCN3CCOCC3)CCOCC2)cc1 | 2
CCn1c(=O)cc(OCC(=O)Nc2ccccc2C#N)c2ccccc21 | -16
CC(C)CNC(=O)COc1ncnc2sccc12 | 4

Later entries:
molecule | OX1R antagonist
CC1CCCCC1NC(=O)COCc1cc(-c2cccs2)on1 (configuration not stated) | -15
CC(=O)Nc1nc2ccccc2n1CCN(C)C | -5
O=[N+]([O-])c1ccc(S(=O)(=O)NCC(c2cccnc2)N2CCc3ccccc3C2)cc1 (configuration not stated) | -34
O=S(=O)(Nc1ccncc1)c1ccc(Cl)cc1 | -3
COc1ccc(C(=O)Nc2ccc3nc(N4CCCCC4)cc(C)c3c2)cc1OC | -29
COCC(=O)NCc1ccc2c(c1)cc(C)n2C | -2
COc1ccccc1OCc1ccc(C(=O)NN)o1 | -20
COc1cccc(C(=O)N/N=C2\SCC(=O)N2Cc2ccc3c(c2)OCO3)c1 | -20
COc1ccc(C2CC(c3ccccc3)=NN2C(=O)COC(=O)c2cc(S(=O)(=O)N3CCOCC3)ccc2Cl)cc1 (configuration not stated) | -16
COc1ccc(CC(=O)Oc2cc(C)[nH]c(=O)c2[N+](=O)[O-])cc1 | -6
Cc1ccc(NC(=O)c2cc(NC(=O)c3ccccc3C(=O)O)ccc2N2CCCCC2)cc1 | -24
CCCN(Cc1ccco1)S(=O)(=O)c1ccc(OC)c(OC)c1 | -22
COc1ccc(-c2nnco2)cc1OC | -6
COc1ccc(S(=O)(=O)n2ccc(C(C)Oc3ccc(-c4ccccc4)c(F)c3)n2)cc1 (configuration not stated) | -9
COC(=O)c1ccc(C2/C(=C(/O)c3ccc4c(c3)CC(C)O4)C(=O)C(=O)N2CCN2CCOCC2)cc1 (configuration not stated) | -30
CC(=O)N/N=C(\C)C1COc2ccccc2O1 (configuration not stated) | -2

Two successive compounds already listed, for reference:
molecule | OX1R antagonist
COc1ccc(C2CC(c3ccccc3)=NN2C(=O)COC(=O)c2cc(S(=O)(=O)N3CCOCC3)ccc2Cl)cc1 (configuration not stated) | -16
COc1ccc(CC(=O)Oc2cc(C)[nH]c(=O)c2[N+](=O)[O-])cc1 | -6

Next section:
molecule | OX1R antagonist
CCCCN(C)CCCNC(=O)c1cn(CC)c2ccc(S(=O)(=O)N3CCOCC3)cc2c1=O | -6
CCOc1ccc(/C=C2/Sc3ccc(C(=O)N4CCOCC4)cc3N(C)C2=O)cc1OC | -31
CCc1c(C)nc2ncnn2c1NC1CCCc2ccccc21 (configuration not stated) | -11
N#Cc1c(F)cccc1NCc1cccs1 | -1
Cc1cc(C)cc(NC(=S)NCCCN2CCOCC2)c1 | -2
COc1ccc(C2=NC(CO)(CO)CO2)cc1 | 2
Cc1ccc(S(=O)(=O)NC2CC2)cc1 | -6
CCSC1=C(C#N)C(c2cccs2)C(C(=O)OC)=C(C)N1 (configuration not stated) | -22
Cc1ccc(NC(=O)Cn2cc([N+](=O)[O-])nc2C)cc1C | 11
COc1ccc(NS(=O)(=O)c2ccc(N3CCOCC3)c(NC(=O)c3ccccc3Br)c2)cc1 | -29
O=S(=O)(Cc1cc(Sc2ccc(Cl)cc2)nc(-c2ccccc2)n1)c1ccccc1 | -7
COCCn1c(SCC(=O)N2CCCC2=O)nc2sc(C)c(C)c2c1=O | -17
Cn1c(SCC(=O)NC2CCCCC2)nnc1-c1ccccc1F | 1
CC(Oc1ccc2ccc(=O)oc2c1)C(=O)NCC1CCC(C(=O)O)CC1 (configuration not stated) | 3
COc1ccc(F)cc1S(=O)(=O)N1CCC(C(N)=O)CC1 | -4
Cc1cc(C)cc(NC(=O)C(=S)NCc2ccccc2)c1 | -20
COc1ccc(-c2sc(NC(=O)c3ccc(C)cc3)nc2-c2ccc([N+](=O)[O-])cc2)cc1 | -4
O=C(Nc1ccccc1O)c1ccc(C(=O)c2ccccc2)o1 | -11
Clc1ccc(Oc2nnnn2-c2ccccc2)cc1 | -7
Cc1ccc(S(=O)(=O)N2CCN(C(=O)c3cc(-c4cccs4)nn3-c3ccccc3)CC2)cc1 | -23
O=C(CSc1ccc2nnc(-c3ccccn3)n2n1)Nc1ccccc1 | 6
CCOC(=O)N1CCC(NC(=O)C2CCCN(S(=O)(=O)c3ccc4c(c3)oc(=O)n4C)C2)CC1 (configuration not stated) | 0
COc1ccc(/C=N\N=C2/SC(CC(=O)O)C(=O)N2c2ccc(O)cc2)cc1OC (configuration not stated) | -6
Cc1ccc(N2CC(NC(=O)N3CCN(C(=O)c4ccco4)CC3)CC2=O)cc1 (configuration not stated) | -6
COc1ccc(CN2CCC(C(=O)c3cccc(Cl)c3)CC2)cc1 | -26
Cc1cc(C)c(NC(=S)N(CCc2ccncc2)C(C)C)c(C)c1 | -5
Cc1ccccc1Cn1c(CN2CCc3ccccc3C2)nc2c1c(=O)n(C)c(=O)n2C | -27
O=C1CC(=O)Nc2cc(S(=O)(=O)Nc3ccc(Cl)c(C(F)(F)F)c3)ccc2N1 | -25
Cc1cccc(C(=O)NCC(=O)N2CC(=O)Nc3ccccc32)c1 | -17
O=C(CN1CCN(S(=O)(=O)c2ccccc2)CC1)Nc1ccccc1C(=O)c1ccccc1 | -22
O=C(COc1cccc2cccnc12)NNC(=S)Nc1ccccc1 | -10
CC(Sc1nc(-c2ccccc2)cc(C(F)(F)F)n1)C(=O)O (configuration not stated) | -8
CCOC(=O)c1ccc(N=C2SC(C(=O)NC)CC(=O)N2CCc2ccccc2)cc1 (configuration not stated) | -11
CC(C)[C@H](Nc1nc(-c2ccccc2)nc2c1oc1ccccc12)C(=O)O | 8
COc1cccc(COC(=O)C2CCN(S(=O)(=O)c3ccc(C)cc3C)CC2)c1OC | -14
Fc1ccc(-[n+]2nc(Nc3ccccc3)sc2-c2ccc(OCc3ccccc3)cc2)cc1 | -3
CCn1c(Cc2ccccc2)nnc1SCC(=O)Nc1ccc(C)cc1 | -1
O=S(=O)(Nc1cccc2cccnc12)c1ccc(S(=O)(=O)N2CCCC2)cc1 | -7
COc1cccc(/C=N/NC(=S)NC2CC3CCC2C3)c1OC (configuration not stated) | -32
Cc1onc(-c2ccccc2)c1C(=O)NC(C)c1ccc2c(c1)OCO2 (configuration not stated) | -7

In the list so far, these have a cyano group.
molecule | OX1R antagonist
N#Cc1nc(-c2ccccc2)oc1NCC1CCCO1 (configuration not stated) | -12
Cc1nn(CCC#N)c(NC(=O)c2ccc(Cl)cc2)c1P(=O)(Nc1ccc([N+](=O)[O-])cc1)N1CCOCC1 (configuration not stated) | -4
N#Cc1ccc(-c2csc(NC(=O)c3cc(-c4cccs4)nc4ccccc34)n2)cc1 | -20
CCn1c(=O)cc(OCC(=O)Nc2ccccc2C#N)c2ccccc21 | -16
N#Cc1c(F)cccc1NCc1cccs1 | -1
CCSC1=C(C#N)C(c2cccs2)C(C(=O)OC)=C(C)N1 (configuration not stated) | -22

Among those listed so far, two have a tert-butyl group:
molecule | OX1R antagonist
CN(C)c1ccc(C(=O)C(O)c2ccc(C(C)(C)C)cc2)cc1 (configuration not stated) | -14
CC(C)(C)C(=O)Nc1nc2cc3c(cc2s1)OCO3 | -16

Continuation.
molecule | OX1R antagonist
O=C(Nc1cc(C(F)(F)F)ccc1N1CCOCC1)c1ccco1 | -8
Nc1ccc2oc(-c3cccs3)nc2c1 | -14
S=c1[nH]c2ccccc2c2ccccc12 | -20
COC(=O)/C=C1\S/C(=N/NC(=O)c2ccc(OC)cc2)NC1=O | 2
Cc1ccc(/C(N)=N/OC(=O)Cc2cccc3ccccc23)cc1 | -6
CCc1nonc1NC(=O)c1oc2ccc(Cl)cc2c1C | 0
COc1ccc(CCNC(=O)C2CCN(C(=O)N(C)C)CC2)cc1OC | 2
COc1ccc(-c2cnc3nc(/N=C/N(C)C)nn3c2/N=C/N(C)C)cc1 | 5
O=S(=O)(c1cccs1)N1CN(Cc2ccco2)c2nc3ccccc3nc21 | -1
Cc1ccc(SCc2cc(=O)[nH]c(Nc3nc(C)c4ccccc4n3)n2)cc1 | -22
Cc1ccc(NC(=O)c2cc(C(=O)Nc3ccc(C)cc3)n(C)n2)cc1 | -17
Cc1ccc(C)c(C(=O)OCC(=O)Nc2ccc(N3CCOCC3)cc2)c1 | 3
COC(=O)C[C@H]1c2ccc(C(F)(F)F)cc2S(=O)(=O)N1Cc1ccccc1 | -17
N#Cc1c(/N=C/c2ccco2)sc2c1CCCCC2 | -13
O/N=C(\CN1CCCCC1)c1ccccc1 | -12
COc1cc2c(cc1OC)CN(Cc1ccccc1)CC2 | -7
COc1cc(C(=O)OCC(=O)N(C)c2ccccc2)cc(OC)c1OC | -21
CC(=O)c1ccccc1Oc1cc(NN2CCCCC2)c([N+](=O)[O-])cc1[N+](=O)[O-] | -24
O=[N+]([O-])c1cccn2cc(-c3ccc(Br)cc3)nc12 | -16

Compound activity as filed in PubChem.

Only part of the results is shown, and most or all hits are left out here.
